Screening data: PubChem, National Center for Advancing Translational Sciences (NCATS)
VDR inhibitor: inhibitors of human vitamin D receptor; VDR-SRC2-3 peptide fluorescence polarization, 2 h; hit rate 0.93% among 400,000; Potency, µM, without a hit: max response, negative = inhibition, usual class: inhibitors; active means well fitted inhibition curve with a large enough effect; inconclusive means small, poorly fitted or top-dose-only effect, or another doubt; inactive means no such curve, though single readings can be large or run the other way; further: series mostly up to about 120 µM
Target sequence (P11473 whole entry, looked up): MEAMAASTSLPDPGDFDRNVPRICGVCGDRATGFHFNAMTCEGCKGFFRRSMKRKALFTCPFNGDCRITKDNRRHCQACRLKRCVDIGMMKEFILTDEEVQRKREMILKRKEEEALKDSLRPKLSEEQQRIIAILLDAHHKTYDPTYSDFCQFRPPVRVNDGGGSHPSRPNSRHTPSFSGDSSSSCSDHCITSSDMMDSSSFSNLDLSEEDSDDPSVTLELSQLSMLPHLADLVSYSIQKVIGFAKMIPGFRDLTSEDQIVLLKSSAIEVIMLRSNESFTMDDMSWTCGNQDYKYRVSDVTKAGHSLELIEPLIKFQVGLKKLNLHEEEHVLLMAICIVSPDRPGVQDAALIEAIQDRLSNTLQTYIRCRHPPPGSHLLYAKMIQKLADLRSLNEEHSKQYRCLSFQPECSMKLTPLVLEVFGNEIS
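The screen uses fluorescence polarization to detect compounds that interfere with recruitment of the SRC2-3 coactivator peptide to VDR; plates are read after 2 h at room temperature.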
Active calls of the source: *; ? = inconclusive; & = joins results of further samples; [ ] = dose if it differs, or a comment. On the % scale 0 is the no-effect control and ±100 the full control effect; potency means the concentration at half of the fitted maximal effect. A portion of the library; count on the stated rates, not on these rows.

smiles | VDR inhibitor
CCCCCCCCCCCCCCCCCC[N+](C)(C)CCC[Si](OC)(OC)OC | 1%
CCCCC(c1nnnn1C1CCCC1)N1CCN(C2CCCCC2)CC1 (centres undefined) | 8%
CCc1ccc(-c2cc3c(=O)n(CC(=O)NCc4ccccc4F)ncn3n2)cc1 | -8%
C#CCOCCOCCOCCNc1nc(N2CCN(C(=O)[C@H](CCC(=O)O)n3cc(C(N)Cc4ccc(O)cc4)nn3)CC2)nc(N2CCN(C(=O)[C@H](Cc3cc4ccccc4[nH]3)n3cc(C(N)[C@H](C)CC)nn3)CC2)n1 (some centres undefined) | -10%
CCOc1ccc(CNC(=O)c2ccc3c(c2)nnn3C2CCCC2)cc1 | -10%
Cc1ccc(OCC(=O)NNC(=O)c2cccnc2)cc1 | -20%
CS(=O)(=O)c1ccc(Cl)c(NC(=O)CNC(=O)c2ccc3c(c2)OCO3)c1 | -2%
Cc1cc(NC(=O)c2cc(-c3ccccn3)nc3ccccc23)no1 | 3%
O=C(NCCc1ccccc1)Oc1ccc(Cl)cc1 | 0%
CCCCn1c(SCC(=O)NC2CCS(=O)(=O)C2)nc2ccccc2c1=O (centres undefined) | 14%
CCc1ccc(N=C2NC(=O)/C(=C/c3ccc(OCC(=O)O)cc3)S2)cc1 | -28%
COc1ccc(-c2oc3ncn4nc(COc5cccc(C)c5C)nc4c3c2-c2ccc(OC)cc2)cc1 | -29%
COC(=O)[C@@H](NCc1cccc(CN[C@H](C(=O)OC)C(C)C)c1)C(C)C | -11%
CC1(C)CCc2c([nH]c3ccccc3c2=O)O1 | -12%
Cc1ccc(N2C(=O)c3ccc(N)cc3C2=O)cc1C | -7%
CC(=O)c1ccc(N2CCN(S(=O)(=O)c3ccc4ccccc4c3)CC2)cc1 | 20%
Fc1ccccc1OCCCCN1CCCCC1 | -3%
CCCN(CCC)S(=O)(=O)c1ccc(C(=O)Nc2nnc(-c3cc(OC)cc(OC)c3)o2)cc1 | -2%
Cc1ccc(C)c(OCCC(=O)OCC(=O)NC2CC2)c1 | -16%
CC(=O)c1sc2c(c1C)c(=O)n(-c1ccc(Cl)cc1)c(=O)n2Cc1ccc(Cl)cc1 | 5%
CC(C)NC(=O)c1sc2c(c1C(=O)Nc1cccnc1)CCCC2 | 1%
COCCN(C(=O)COC(=O)/C=C/c1cccc(C(F)(F)F)c1)c1c(N)n(CC(C)C)c(=O)[nH]c1=O | -21%
Cc1ccc([C@@H]2C3COCC=C3C(C#N)=C(N)C2(C#N)C#N)o1 (some centres undefined) | ?
O=C(c1ccc(OC2CCN(CCc3ccccc3)CC2)cc1)N1CCCCC1CCCO (centres undefined) | 9%
Cc1ccc(OCC(=O)NC2CCCC2)c(C)c1 | 15%
CCCNc1ncc2c(=O)[nH][nH]c(=O)c2n1 | 13%
CC(=O)Nc1cc(C(=O)OC(C(=O)c2ccccc2)c2ccccc2)ccc1C (centres undefined) | 2%
Cc1ccc(OCC(=O)N(Cc2ccco2)Cc2ccco2)cc1C | 2%
O=c1c2ccccc2ncn1CCCCOc1ccccc1F | -28%
CC1NC2(C(=O)N(Cc3ccccc3)c3ccccc32)C2C(=O)N(c3ccccc3)C(=O)C12 (centres undefined) | -14%
COc1cc(/C=N/NC(=O)C(=O)/C=C2\NC3(CCCC3)Cc3ccccc32)ccc1O | -11%
CC(=O)c1cccc(NC(=O)CSc2nc(=O)n(CCCN3CCOCC3)c3c2CCC3)c1 | -16%
COc1cc(CNCc2ccccn2)ccc1OCc1ccc(Cl)cc1 | 2%
O=C(NCCCCc1ccccc1)c1cccc(NC(=O)C2CCCC2)c1 | -16%
CCOC(=O)C(=NCC1CCCO1)NNc1cc(Cl)ccc1Cl (centres undefined) | 2%
CCn1c(C)nc2c1C(=O)c1ccccc1C2=O | 16%
COc1cc(C#Cc2c(-c3cncn3C)n(C)c3ccc(-c4ccc(CN5CCOCC5)cc4)cc23)cc(OC)c1 | 8%
CCN(CC)S(=O)(=O)c1ccc(NC(=O)NCc2noc3ccc(C)cc23)cc1 | 0%
COc1ccc(Cc2nc3ccc(C(=O)NCc4ccc(OC)cc4OC)cc3o2)cc1 | 0%
NS(=O)(=O)c1ccc2nc(NC(=O)CS(=O)(=O)c3ccc(F)cc3)sc2c1 | 33%[activator]
COc1cccc(CNS(=O)(=O)c2c(C)[nH]c(C)c2C(=O)N2CCCC2)c1 | -14%
Nc1nc(CN2CCCCCC2)nc(Nc2ccccc2)n1 | 7%
Cc1cccc2c1-c1sc(C(=O)N3CCN(c4cccc(Cl)c4)CC3)cc1CO2 | -3%
COc1ccc(OC)c(CNC(=O)C2CCCN(C(=O)N(C)C)C2)c1 (centres undefined) | 17%
CCn1cc(SCC(=O)Nc2cc(C)on2)c2ccccc21 | -3%
Cc1cc(C)c[n+](-c2nc3ccccc3nc2[N-]S(=O)(=O)c2ccc(Br)s2)c1 | 3%
CCN(CC)S(=O)(=O)c1ccc(N=NC2=C(O)CCCC2=O)cc1 | 6%
CNS(=O)(=O)c1cccc(C(=O)Nc2cccc(Cl)c2)c1 | 19%
CCC(O)c1cc2c(cc1NC(=O)c1ccccc1F)OCCO2 (centres undefined) | 9%
CCOC(=O)c1nnc(-c2ccc(C)cc2)nc1Oc1ccc(Cl)cc1Cl | ?

Molecules above that contain two or more sulfur atoms, in the order listed:
smiles | VDR inhibitor
CCCCn1c(SCC(=O)NC2CCS(=O)(=O)C2)nc2ccccc2c1=O (centres undefined) | 14%
NS(=O)(=O)c1ccc2nc(NC(=O)CS(=O)(=O)c3ccc(F)cc3)sc2c1 | 33%[activator]
Cc1cc(C)c[n+](-c2nc3ccccc3nc2[N-]S(=O)(=O)c2ccc(Br)s2)c1 | 3%

Later entries
smiles | VDR inhibitor
CCNCCCNCCCNCCCNCC | 4%
CN(C)CCSc1nc(-c2ccccc2)nc2c1CCC2 | 2%
c1ccc(-c2nnc(N3CCN(c4ccccc4)CC3)nc2-c2ccccc2)cc1 | 13%
COc1ccccc1/C=C/C(=O)c1c2c(c(C)[nH]c1=O)CCCC2 | -12%
CCCCC(CC)CNC(=O)c1ccc2c(=O)n(Cc3ccc(OC)cc3)c(=O)[nH]c2c1 (centres undefined) | 0%
CCCOC(=O)c1c(-c2ccc(C)cc2C)csc1NC(=O)C1C2CCC(O2)C1C(=O)O (centres undefined) | ?
Brc1ccc(-c2ccccc2)cc1 | -1%
Cn1c(CNC(=O)CNS(=O)(=O)c2ccc(Br)cc2)cc(=O)n(C)c1=O | -22%
C/C(CC(=O)Nc1ccc(N(C)C)cc1)=N\NC(=O)c1ccc([N+](=O)[O-])cc1Cl | 79µM*
CCC(C)NC(=O)CSc1nnc(-c2ccc(Cl)cc2)n1N (centres undefined) | -21%
Cc1occc1C(=O)Nc1nnc(C(F)(F)F)s1 | 10%
O=c1c2ccccc2nc2n1C(CBr)CN2 (centres undefined) | 8%
CCc1cc2c(=O)c(Oc3ccccc3F)c(C)oc2c(CN(C)C)c1O | 3%
Cc1ccc(CS(=O)(=O)c2ncc(Cl)c(C(=O)Nc3nnc(C(C)C)s3)n2)cc1 | 13µM*
COc1ccc(/C=N/OCC(=O)Nc2nc3ccccc3s2)cc1 | -4%
Cc1ccc(-c2nnc(SCC(=O)N/N=C/c3ccc(C(=O)O)cc3)n2C2CCCCC2)cc1 | 7%
CN(CC(=O)Nc1cccc(F)c1)C(=O)C1CC(=O)N(Cc2ccco2)C1 (centres undefined) | 9%
O=C1CCCCN1CCC(=O)N1CCCC(N2CCN(c3ccccc3)CC2)C1 (centres undefined) | 10%
CCOC(=O)NCCc1ccc(OC)cc1 | 7%
CN(CC(=O)Nc1ccc(Cl)c(C(F)(F)F)c1)C(=O)Cn1cc([N+](=O)[O-])ccc1=O | -13%
Cc1c(NS(=O)(=O)c2ccc(Cl)c(C(=O)OC(C)C(=O)N3CCOCC3)c2)c(=O)n(-c2ccccc2)n1C (centres undefined) | 8%
Cc1cc(C)c2c(=O)cc(C(=O)NCCc3ccc(S(N)(=O)=O)cc3)oc2c1 | 7%
O=C(c1cccc(Cl)c1)C1CCCN(C(=O)c2ccoc2)C1 (centres undefined) | 17%
CCC(=O)NCC(c1cccs1)S(=O)(=O)c1ccc(C)cc1 (centres undefined) | 21%
COC(=O)c1ccccc1NC(=O)C1=C(C)C(=O)OC12CCC(C)CC2 (centres undefined) | -5%

Additional structures:
molecule | VDR inhibitor
Cc1ccc(CSc2oc(-c3ccco3)nc2S(=O)(=O)c2ccc(Br)cc2)cc1 | 13%
O=C(NC1CCCC1)C(c1ccsc1)N(C(=O)Cc1cccs1)c1ccc(F)cc1 (centres undefined) | 1%
NNc1nc2ccccc2c(=O)n1Cc1ccccc1 | -16%
CCOc1cc2c(Cl)ncnc2c(OCC)c1OCC | 3%
O=C(NC1CCc2ccccc21)c1cc(COc2ccc(F)cc2Cl)on1 (centres undefined) | -34%
CCC1CCCCN1C(=O)CSc1nc2ccsc2c(=O)n1Cc1ccccc1 (centres undefined) | -12%
OCCNc1nc2ccccc2[nH]1 | -4%
CCOc1ccc(S(=O)(=O)Nc2ccc(C(=O)NCCCN3CCCC3=O)cc2)cc1 | -1%
Oc1c(C(c2ccccc2)N2CCOCC2)ccc2ccccc12 (centres undefined) | 20µM*
COc1ccc(C(=O)NC2CCCc3ccccc32)cc1 (centres undefined) | -18%
CSCC[C@H](NC(=O)Nc1ccc(S(N)(=O)=O)cc1)C(=O)O | -4%
C=CCn1cnc2scc(-c3ccc(OC)cc3)c2c1=O | 2%
Cc1cc2c(c(C)c1Cl)C(c1ccc3c(c1)OCO3)CC(=O)O2 (centres undefined) | 4%&-3%
COc1cc(-c2nnc(COc3ccc4ccccc4c3)o2)cc(OC)c1OC | -5%
CCCCOC(=O)/C=C/c1c(C)[nH]c(=O)[nH]c1=O | 3%
COc1cc(/C=N/NC(=O)c2cccc(C(=O)N/N=C/c3ccc(O)c(OC)c3)n2)ccc1O | -20%
COc1ccc(CNC(=O)C(CC(C)C)NC(=O)c2ccccc2C)cc1 (centres undefined) | -11%
Cc1c(Cc2ccccc2)sc(/N=C/c2ccc3ccccc3c2)c1C(N)=O | -22%
O=C(CCCN1C(=O)C(c2ccccc2)Oc2cccnc21)NCc1ccccc1F (centres undefined) | -10%
c1ccc(-c2noc(CN3CCN(C(c4ccccc4)c4ccccc4)CC3)n2)cc1 | 5%
O=C(c1ccc2c(c1)N(Cc1ccc(F)cc1)C(=O)CS2)N1CCOCC1 | -5%
CCN(CC(=O)Nc1c(F)cccc1F)C(=O)Cc1ccccc1 | ?
Cc1ccc(Cl)cc1N1CCN(S(=O)(=O)c2ccc3c(c2)C(C(C)C)C(=O)N3)CC1 (centres undefined) | 12%
Cc1ccc(NC(=O)CC2Oc3ccc(C)cc3NC2=O)cc1 (centres undefined) | -23%
CCC(C)Cn1c(C)nc2ccccc21 (centres undefined) | 11%
CCN1C[C@@H]2[C@@H]3C(=O)N(Cc4ccccc4)C(=O)[C@@H]3[C@](CC)(C(=O)OC)N2C1=NCc1ccccc1 | -4%
Cc1ccc(S(=O)(=O)Nc2ccc(NC(=O)c3c(F)c(F)c(F)c(F)c3F)cc2)cc1 | -5%
O=c1cc(CN2CCN(S(=O)(=O)c3ccccc3)CC2)nc2sc(-c3ccccc3Cl)nn12 | 10%
CC12CCC(C(=O)Nc3ccccc3-n3cccc3)(CC1=O)C2(C)C (centres undefined) | 0%
COc1ccc2nc(NC(=O)C3CCN(S(=O)(=O)c4cccs4)CC3)sc2c1 | 22%
O=[N+]([O-])c1ccc(N2CCN(c3ccccc3O)CC2)c(Cl)c1 | -19%
Cc1cccc(C)c1Nc1c(-c2ccsc2)nc2ccc(Cl)cn12 | -11%
CC(Oc1ccccc1)c1ccn[nH]1 (centres undefined) | 2%
COc1cccc(Cn2c(=O)c(-c3cccc(F)c3)nc3cncnc32)c1 | -11%
O=C(Nc1ccc(-c2csc(-c3ccccc3)n2)cc1)c1ccccc1Cl | -6%
Cc1cc(C)cc(NC(=O)C2CCCN(S(=O)(=O)c3cnc[nH]3)C2)c1 (centres undefined) | -7%
CCOC(=O)N1CCC(NC(=O)CS(=O)(=O)Cc2nc(-c3ccccc3C)oc2C)CC1 | 21%
O=C(c1cn[nH]c1)N1CCc2c([nH]c3ccccc23)C1c1c(F)cccc1Cl (centres undefined) | 18%
CCOC(=O)C1C(=O)Oc2ccc3ccccc3c2C1C1CCOC1=O (centres undefined) | -6%

In the list so far, twelve have a thiophene ring, fused or not.
molecule | VDR inhibitor
CC(=O)c1sc2c(c1C)c(=O)n(-c1ccc(Cl)cc1)c(=O)n2Cc1ccc(Cl)cc1 | 5%
CC(C)NC(=O)c1sc2c(c1C(=O)Nc1cccnc1)CCCC2 | 1%
Cc1cccc2c1-c1sc(C(=O)N3CCN(c4cccc(Cl)c4)CC3)cc1CO2 | -3%
Cc1cc(C)c[n+](-c2nc3ccccc3nc2[N-]S(=O)(=O)c2ccc(Br)s2)c1 | 3%
CCCOC(=O)c1c(-c2ccc(C)cc2C)csc1NC(=O)C1C2CCC(O2)C1C(=O)O (centres undefined) | ?
CCC(=O)NCC(c1cccs1)S(=O)(=O)c1ccc(C)cc1 (centres undefined) | 21%
O=C(NC1CCCC1)C(c1ccsc1)N(C(=O)Cc1cccs1)c1ccc(F)cc1 (centres undefined) | 1%
CCC1CCCCN1C(=O)CSc1nc2ccsc2c(=O)n1Cc1ccccc1 (centres undefined) | -12%
C=CCn1cnc2scc(-c3ccc(OC)cc3)c2c1=O | 2%
Cc1c(Cc2ccccc2)sc(/N=C/c2ccc3ccccc3c2)c1C(N)=O | -22%
COc1ccc2nc(NC(=O)C3CCN(S(=O)(=O)c4cccs4)CC3)sc2c1 | 22%
Cc1cccc(C)c1Nc1c(-c2ccsc2)nc2ccc(Cl)cn12 | -11%
